# Compound activity from PubChem BioAssay.
# total CFTR – total CFTR protein upregulators, primary screen, cell-based, HeLa F508del-CFTR, immunofluorescence, viability (AID 1224863); HeLa F508del-CFTR, immunofluorescence total CFTR, 24 h; by the record results were divided by relative cell number; some inactives read as strong as hits; 10,000 tested, 0.1% active; calls, or highest fold increase where a dose series was run; in the data nearly all actives have a first-pass fold increase above 1.5; a few of its hits are not listed in these tables;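 further: total CFTR protein by anti-CFTR immunofluorescence in fixed cells; first pass at 25 µM or 10 µg/mL by library and series up to twice that; 1 = untreated cells; first-pass hits also needed half or more of the cells alive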
# total CFTR fold 25 µM – further read-out of total CFTR, marked with its call; fold increase; measured here: primary screen single dose 25 uM; library dosed in µM
# total CFTR fold 10 ug/mL – further read-out of total CFTR, marked with its call; fold increase; measured here: primary screen 10 ug/mL
# total CFTR viability 25 µM – second read-out of total CFTR, no call of its own (marks repeat the call); viability, %; measured here: primary viability 25 uM; library dosed in µM;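 0% = killed and 100% = untreated cells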
# total CFTR viability 10 ug/mL – also measured in total CFTR; calls as there; viability, %; measured here: primary viability 10 ug/mL;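 0% = killed and 100% = untreated cells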
# An asterisk follows results filed as active; i = inactive; · = not tested or not shown; & = joins results of further samples. These rows are one share of the data; count on the stated rates, not on these rows.
SMILES,total CFTR,total CFTR fold 10 ug/mL,total CFTR viability 10 ug/mL,others
c1coc(-c2nc(CSc3nnc4n3CCCCC4)no2)c1,i,1.19,93.0,
Cc1cnc(C2(C#N)Cc3c(C)nn(-c4ccccc4)c3N3CCCCC32)s1 (centres undefined),i,0.82,75.0,
Cc1ccc2c(Br)cc(Br)c(OC(=O)c3ccccc3)c2n1,i,·,·,total CFTR fold 25 µM=0.88;total CFTR viability 25 µM=71.0
Cc1nc(Cc2nc(-c3ccc4c(c3)CCCN4S(C)(=O)=O)cs2)cs1,i,0.96,83.0,
CC(C)N(C)C1CCN(c2nc(-c3ccncc3)nc3ccccc23)CC1,i,1.03,92.0,
CC(C)(C)C(=O)N1Cc2ccccc2C(c2ccccc2)C1 (centres undefined),i,0.96,75.0,
Cc1cccc2nc(C(=O)OCC3CC3(Cl)Cl)cn12 (centres undefined),i,1.05,91.0,
COC(=O)C1=C(C)N(c2ccc3c(c2)OCO3)C(=O)NC1c1ccc(Cl)c([N+](=O)[O-])c1 (centres undefined),i,0.92,89.0,
C=CCNc1nnc(SC(C)C(=O)Nc2sccc2C(N)=O)s1 (centres undefined),i,0.92,80.0,
CCn1c(SCc2nnc(C)o2)nc2ccccc21,i,1.06,94.0,
O=S(=O)(NC1CCCC1)C1=Cc2ccccc2CC1,i,1.05,86.0,
O=C(COC(=O)c1cccnc1Sc1ncnc2sc3c(c12)CCC3)c1ccc(Br)cc1,i,1.08,79.0,
CCN(CC)S(=O)(=O)c1cc2c(cc1Br)NC(=O)CO2,i,1.02,92.0,
O=C(OCCN1CCCC1=O)c1ccc(C(=O)OCCN2CCCC2=O)c([N+](=O)[O-])c1,i,1.11,102.0,
CC(C)NC(=O)CCCNC(=O)NC1CCCCC1,i,0.88,89.0,
CNC(=O)NC(=O)CCN1CCCCCC1,i,0.95,95.0,
CC(C)n1ncc2cc(NS(=O)(=O)C3=Cc4ccccc4CC3)cnc21,i,0.86,87.0,
CC(C)Cn1nnnc1SCC(=O)NC(N)=O,i,1.05,93.0,
CC(C)Sc1nnc(NCc2ccco2)s1,i,1.05,89.0,
Cn1nnnc1SCC1=C(C(=O)O)N2C(=O)C(NC(=O)C(OC=O)c3ccccc3)C2SC1 (centres undefined),i,·,·,total CFTR fold 25 µM=1.02;total CFTR viability 25 µM=83.0

# Three structures out of the list, sorted by count of non-hydrogen atoms, highest first.
SMILES,total CFTR,total CFTR fold 10 ug/mL,total CFTR viability 10 ug/mL,others
Cn1nnnc1SCC1=C(C(=O)O)N2C(=O)C(NC(=O)C(OC=O)c3ccccc3)C2SC1 (centres undefined),i,·,·,total CFTR fold 25 µM=1.02;total CFTR viability 25 µM=83.0
C=CCNc1nnc(SC(C)C(=O)Nc2sccc2C(N)=O)s1 (centres undefined),i,0.92,80.0,
c1coc(-c2nc(CSc3nnc4n3CCCCC4)no2)c1,i,1.19,93.0,

# Other records.
SMILES,total CFTR,total CFTR fold 10 ug/mL,total CFTR viability 10 ug/mL,others
CCC(N)C(C)C (centres undefined),i,1.14,96.0,
CS(=O)(=O)NC1CCN(c2nc(CN3CCOCC3)nc3sc4c(c23)CCC4)CC1,i,1.07,94.0,
CCc1cc2oc(=O)cc(CN3CCNC(=O)C3)c2cc1Cl,i,0.99,98.0,
c1csc(-c2cc(CSc3nnc(NC4CCCCC4)s3)no2)c1,i,0.87,74.0,
CN1CCC(N(C)Cn2nc(C3COc4ccccc4O3)n(-c3ccccc3)c2=S)CC1 (centres undefined),i,1.17,87.0,
CCCCCNC(C)c1nc2sc(C(=O)OCC)c(C)c2c(=O)[nH]1 (centres undefined),i,1.04,83.0,
CCc1ccc(CN(C)CN2C(=O)NC(CC(C)C)C2=O)cc1 (centres undefined),i,0.96,98.0,
CCC(CC)Nc1nc(-c2cccnc2)nc2sc(C)c(C)c12,i,0.84,93.0,
O=S(=O)(Nc1cc2c(cc1Cl)OCO2)c1ccc2c(c1)OCCCO2,i,1.01,92.0,
C=CCNC(=O)NC(=O)CN1CCN(c2oc(-c3ccco3)nc2C#N)CC1,i,0.9,90.0,
O=C(NCc1ccco1)C1CCCN1Cc1nc2ccsc2c(=O)[nH]1 (centres undefined),i,0.93,97.0,
CC(C)c1ncncc1C(=O)O,i,1.07,92.0,
O=C(O)c1ccc(N2CCNC2=O)cc1,i,1.09,89.0,
CC1(C)CC(NC(=O)Nc2cc3c(cc2Br)OCCO3)CC(C)(C)N1,i,0.96,94.0,
O=C(Cn1ncc(Cl)c(Cl)c1=O)N1CCNC1=O,3.11,1.56,78.0,
CCOC(=O)c1c(NC(=O)COC(=O)c2[nH]c(C)c(C(C)=O)c2C)sc(C)c1C,i,1.14,84.0,
CC(C)=CCCC(C)CCNC1CCN(Cc2ccccc2)CC1 (centres undefined),i,1,103.0,
CNc1ccc(Cl)cc1N,2.1,2.25,80.0,
O=C(NCC(F)(F)F)c1ccc(S(=O)(=O)N2CCCC2)o1,i,1.03,101.0,
COc1cc(C)c(CSc2nnnn2C2CCCC2)cc1OC,i,0.98,85.0,
c1ccc(OCCCSc2nnnn2C2CC2)cc1,i,0.94,97.0,
Cc1ccc(C)c(-n2cnn(CN3CCN(c4ncc(C(F)(F)F)cc4Cl)CC3)c2=S)c1,i,1.03,101.0,
Cc1ccc(SCCSc2nnc(-c3ccco3)n2C)cc1C,i,1.04,84.0,
O=C(O)CNC(=O)CC(F)(F)F,i,1.19,105.0,
O=C(C1CC1)N1CCN(c2cn[nH]c(=O)c2Cl)CC1,i,0.99,95.0,
CCC(CC)N(Cn1[nH]c(-c2ccc(OC)cc2)nc1=S)C1CC1,i,0.92,102.0,
Cc1cc(C(=O)COC(=O)C2(c3ccc4c(c3)OCCO4)CCCC2)c(C)[nH]1,i,0.94,95.0,
CC(C(O)c1ccc(O)cc1)N1CCC(Cc2ccccc2)CC1 (centres undefined),i,·,·,total CFTR fold 25 µM=1;total CFTR viability 25 µM=91.0
COc1cccc(-n2ccn(CN3CCN(C(=O)OC(C)(C)C)CC3)c2=S)c1,i,0.89,102.0,
O=C(C1=C(O)C(=O)N(Cc2cccnc2)C1c1ccccc1)c1ccco1 (centres undefined),i,1.09,97.0,
Cn1cc(/C=C/C(=O)NC2CCN(S(C)(=O)=O)CC2)cn1,i,0.89,87.0,
CC(NCc1cc(Br)c2c(c1)OCO2)c1ccccc1OC(F)F (centres undefined),i,0.9,86.0,
COc1ccc([N+](=O)[O-])cc1C(C)N (centres undefined),i,0.93,85.0,
CC1CN(S(=O)(=O)CCNc2ccc([N+](=O)[O-])cc2C#N)CC(C)O1 (centres undefined),i,0.95,106.0,
O=c1[nH]c2ccccc2c(=O)n1CC(O)CN1CCc2ccccc2C1 (centres undefined),i,1.01,100.0,
O=C(NCc1ccccn1)Nc1ccccc1I,i,1.05,93.0,
C[C@]12CCC3c4ccc(O)cc4CCC3C1CC[C@@H]2OC(=O)CCC1CCCC1 (some centres undefined),i,·,·,total CFTR fold 25 µM=0.78;total CFTR viability 25 µM=74.0
Cc1cc(NC(=O)COC(=O)c2c(NC(=O)C3CC3)sc(C)c2C)no1,i,0.92,79.0,
O=C1NC2(CCCCC2)C(=O)N1Cc1cc([N+](=O)[O-])cc2c1OCOC2,i,1.03,111.0,
CC(C)(C)OC(=O)N1C(CSc2nnc(CC3CCS(=O)(=O)C3)o2)COC1(C)C (centres undefined),i,1.07,89.0,
O=C(/C=C/c1ccc(Cl)s1)NCC1CCCC1,i,0.98,97.0,
C[C@]12C=CC(=O)C=C1CC[C@H]1[C@@H]3C[C@@H](O)[C@](O)(C(=O)CO)[C@@]3(C)C[C@H](O)[C@@]12F,i,·,·,total CFTR fold 25 µM=1.04&1.06;total CFTR viability 25 µM=80.0&81.0
c1coc(CNc2ccncc2)c1,i,0.99,92.0,
CCC(C)(C)C1CCc2nc3ccc(Cl)cc3c(-c3ccccc3)c2C1 (centres undefined),i,0.97,99.0,
CCC1(CC)NC(=O)N(CC(O)COC(c2ccccc2)c2ccccc2C)C1=O (centres undefined),i,1.03,99.0,
Cn1c(=O)c2ccccc2n2c(CN3C(=O)c4cc(Cl)c(Cl)cc4C3=O)nnc12,i,0.92,102.0,
CCCCn1c(=O)[nH]c(=O)c2c1nc(COC(=O)C13CC4CC(CC(O)(C4)C1)C3)n2CCC,i,1.07,105.0,
CC(C)OC(=O)CCC/C=C\C[C@@H]1[C@@H](CC[C@@H](O)CCc2ccccc2)[C@H](O)C[C@@H]1O,i,·,·,total CFTR fold 25 µM=0.78;total CFTR viability 25 µM=73.0
O=C1NC(=O)C(c2ccccc2)(c2ccccc2)N1,i,·,·,total CFTR fold 25 µM=1.07&1.09;total CFTR viability 25 µM=100.0&92.0
Cc1cc(C(=O)CN2C(=O)NC3(CCCCC3)C2=O)c(C)n1CCC1=CCCCC1,i,1.1,97.0,
CCOC(=O)C1=C(COC(=O)c2cc(-c3ccccc3)nc3ccc(C)cc23)NC(=O)NC1C (centres undefined),i,1.01,104.0,
OCC1CCCN(c2nc(-c3cccs3)nc3ccccc23)C1 (centres undefined),i,0.91,99.0,
CN(C(=O)C(Cl)Cl)c1ccc(OC(=O)c2ccco2)cc1,i,·,·,total CFTR fold 25 µM=1.02;total CFTR viability 25 µM=95.0
CN(C(=O)CSc1nc(N)cc(N)n1)C1(C#N)CCCCC1,i,0.98,106.0,
Cc1cc(Cl)c(C)c(S(=O)(=O)NCCC2CCCO2)c1Cl (centres undefined),i,0.96,81.0,
CCN(CC)CCNc1ccc(CO)c2sc3ccccc3c(=O)c12,i,·,·,total CFTR fold 25 µM=1.35;total CFTR viability 25 µM=89.0
CN1/C(=C/C(=O)COC(=O)c2oc3ccccc3c2CSC2CCCCC2)C(C)(C)c2ccccc21,i,0.99,94.0,
CN1CCN(C2=Nc3ccccc3Sc3ccc(Cl)cc32)CC1,i,·,·,total CFTR fold 25 µM=0.93;total CFTR viability 25 µM=81.0
CCOC(=O)C1=C(CSc2ncnc3sc4c(c23)CCC4)NC(=O)NC1c1cccs1 (centres undefined),i,1.04,86.0,
CC1=C(C(=O)N(C)C)C(c2cc([N+](=O)[O-])c(F)cc2F)NC(=S)N1c1cc(C)cc(C)c1 (centres undefined),i,1.33,86.0,
# The list continues.
SMILES,total CFTR,total CFTR fold 10 ug/mL,total CFTR viability 10 ug/mL,others
NC(N)=N/N=C/c1c(Cl)cccc1Cl,i,·,·,total CFTR fold 25 µM=1.01;total CFTR viability 25 µM=88.0
CC1CN(c2ccc([N+](=O)[O-])cc2S(=O)(=O)N2CCCC2)CC(C)O1 (centres undefined),i,1.05,100.0,
CCOC(=O)c1sc2ncnc(NCCCN3CCC(C)CC3)c2c1C,i,1,97.0,
O=C(NCCN1CCCCCC1=O)C1CCCC1,1.14,2.74,92.0,
Cc1cc(C(C)(C)C)c(O)c(C)c1CC1=NCCN1,i,·,·,total CFTR fold 25 µM=1.08&1.02&1.11;total CFTR viability 25 µM=109.0&84.0&108.0
CCCCCCCCCCCCCCCC(=O)O[C@@H]1[C@@H](O)[C@@H](O)[C@@H]([C@H](NC(=O)[C@@H]2C[C@@H](CCC)CN2C)[C@H](C)Cl)O[C@@H]1SC,i,·,·,total CFTR fold 25 µM=1.04;total CFTR viability 25 µM=107.0
C[C@H]1O[C@@H](O[C@H]2[C@@H](O)C[C@H](O[C@H]3[C@@H](O)C[C@H](O[C@H]4CC[C@]5(C)C6CC[C@]7(C)[C@@H](C8=CC(=O)OC8)CC[C@]7(O)C6CC[C@@H]5C4)O[C@@H]3C)O[C@@H]2C)C[C@H](O)[C@@H]1O (some centres undefined),i,·,·,total CFTR fold 25 µM=0.59;total CFTR viability 25 µM=36.0
C#CCNC(=O)N1CCN(S(=O)(=O)c2ccc3c(c2)OCCO3)CC1,i,1.08,99.0,
CC(CNC(=O)c1cnccn1)N1CCOCC1 (centres undefined),i,1.14,96.0,
CC(C)CC1NC(=O)N(CN2CCCC(C)C2)C1=O (centres undefined),i,0.85,84.0,
CCc1ccc(CNC(=O)C2CCCN(C(=O)OC(C)(C)C)C2)s1 (centres undefined),i,0.87,81.0,
c1ccc(-c2csc3ncnc(Sc4nnc(C5COc6ccccc6O5)n4-c4ccccc4)c23)cc1 (centres undefined),i,1.02,91.0,
O=C(COC(=O)c1ccco1)c1ccc2[nH]c(=O)[nH]c2c1,i,1.03,97.0,

# Compounds shown so far that contain two or more sulfur atoms:
SMILES,total CFTR,total CFTR fold 10 ug/mL,total CFTR viability 10 ug/mL,others
Cc1nc(Cc2nc(-c3ccc4c(c3)CCCN4S(C)(=O)=O)cs2)cs1,i,0.96,83.0,
C=CCNc1nnc(SC(C)C(=O)Nc2sccc2C(N)=O)s1 (centres undefined),i,0.92,80.0,
O=C(COC(=O)c1cccnc1Sc1ncnc2sc3c(c12)CCC3)c1ccc(Br)cc1,i,1.08,79.0,
CC(C)Sc1nnc(NCc2ccco2)s1,i,1.05,89.0,
Cn1nnnc1SCC1=C(C(=O)O)N2C(=O)C(NC(=O)C(OC=O)c3ccccc3)C2SC1 (centres undefined),i,·,·,total CFTR fold 25 µM=1.02;total CFTR viability 25 µM=83.0
CS(=O)(=O)NC1CCN(c2nc(CN3CCOCC3)nc3sc4c(c23)CCC4)CC1,i,1.07,94.0,
c1csc(-c2cc(CSc3nnc(NC4CCCCC4)s3)no2)c1,i,0.87,74.0,
Cc1ccc(SCCSc2nnc(-c3ccco3)n2C)cc1C,i,1.04,84.0,
CC(C)(C)OC(=O)N1C(CSc2nnc(CC3CCS(=O)(=O)C3)o2)COC1(C)C (centres undefined),i,1.07,89.0,
CCOC(=O)C1=C(CSc2ncnc3sc4c(c23)CCC4)NC(=O)NC1c1cccs1 (centres undefined),i,1.04,86.0,
c1ccc(-c2csc3ncnc(Sc4nnc(C5COc6ccccc6O5)n4-c4ccccc4)c23)cc1 (centres undefined),i,1.02,91.0,
